Screening results (PubChem BioAssay)
Vaccinia stage = blocks a specific stage of Vaccinia orthopoxvirus infection; Vaccinia-infected cells, mCherry/Venus stage reporter fluorescence; stronger effect = lower value; some inactives read as strong as hits; activity change (mCherry), % (no concentration beside the values); 0.01% of 89,000 active;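 active means mCherry past -33% and 40 or more points under the early reporter, replicates agreeing; inconclusive means past -33% without that gap or agreement; tested in A549 cells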;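 further: scaled between vehicle wells and reference inhibitor wells; 23 nL library stock went into each well; one replicate is shown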
Vaccinia stage Venus = recorded beside Vaccinia stage, whose call it bears; activity change (Venus), %; measured here: Venus reporter, other viral stage;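 negative = less Venus signal; first of two replicates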
Active calls of the source: *; ? = inconclusive; · = no result given.

1) C[C@@H]1CCCCO[C@@H](CN(C)C(=O)c2ccncc2)[C@H](C)CN([C@@H](C)CO)C(=O)c2cc(NS(=O)(=O)c3cccs3)ccc2O1
2) Cc1noc(C)c1NC(=O)N(C)C[C@H]1Oc2ccc(NC(=O)Nc3ccccc3)cc2CC(=O)N([C@@H](C)CO)C[C@H]1C
3) C[C@@H]1CCCCO[C@@H](CN(C)C(=O)Nc2cccc3ccccc23)[C@H](C)CN([C@@H](C)CO)C(=O)c2cc(NS(C)(=O)=O)ccc2O1
4) CN(C)C(=O)C[C@H]1CC[C@@H]2[C@H](COC[C@H](O)CN2Cc2nccs2)O1
5) C[C@@H]1CCCCO[C@H](CN(C)S(=O)(=O)c2ccc(F)cc2)[C@@H](C)CN([C@@H](C)CO)C(=O)c2cc(NS(=O)(=O)c3ccccc3)ccc2O1

assay / compound	1	2	3	4	5
Vaccinia stage	12	1	20	28	-28
Vaccinia stage Venus	0	3	19	22	-19

6) C[C@H](CO)N1C[C@H](C)[C@@H](CN(C)S(=O)(=O)c2ccc(Cl)cc2)Oc2c(NC(=O)Nc3ccccc3)cccc2C1=O
7) Cc1noc(C)c1S(=O)(=O)N(C)C[C@@H]1OCCCC[C@@H](C)Oc2ccc(NC(=O)C3CCCCC3)cc2C(=O)N([C@@H](C)CO)C[C@H]1C
8) C[C@H](CO)N1C[C@H](C)[C@@H](CN(C)C)Oc2ccc(NC(=O)Cc3ccccc3)cc2CC1=O
9) O=C(C[C@H]1CC[C@@H]2[C@H](COC[C@H](O)CN2Cc2cccc(Cl)c2)O1)N1CCCCC1
10) COc1ccc2c3c([nH]c2c1)[C@H](CO)N(C(=O)Nc1ccc(F)cc1)CC31CCN(C(=O)Nc2ccc3c(c2)OCO3)CC1

assay / compound	6	7	8	9	10
Vaccinia stage	-20	-22	7	0	-14
Vaccinia stage Venus	-5	-19	7	-1	-20

Three compounds out of the list, arranged by SMILES length, highest first:
6) C[C@H](CO)N1C[C@H](C)[C@@H](CN(C)S(=O)(=O)c2ccc(Cl)cc2)Oc2c(NC(=O)Nc3ccccc3)cccc2C1=O
8) C[C@H](CO)N1C[C@H](C)[C@@H](CN(C)C)Oc2ccc(NC(=O)Cc3ccccc3)cc2CC1=O
9) O=C(C[C@H]1CC[C@@H]2[C@H](COC[C@H](O)CN2Cc2cccc(Cl)c2)O1)N1CCCCC1

assay / compound	6	8	9
Vaccinia stage	-20	7	0
Vaccinia stage Venus	-5	7	-1

(cont.)
11) C[C@H]1CN([C@@H](C)CO)S(=O)(=O)c2ccc(C#CC3CCCC3)cc2O[C@H]1CN(C)CC1CC1
12) CC(=O)N[C@@H]1CC[C@@H](CCNC(=O)C2CCC2)O[C@@H]1CO
13) Cc1noc(C)c1S(=O)(=O)Nc1ccc2c(c1)C(=O)N([C@@H](C)CO)C[C@H](C)[C@@H](CN(C)C(=O)NC1CCCCC1)OCCCC[C@H](C)O2
14) CCC(=O)N1CC(=O)N2[C@H](CO)[C@@H](c3ccc(C#CCC(C)C)cc3)[C@@H]2C1
15) CCCNC(=O)N1C[C@@H](O)COC[C@H]2O[C@@H](CC(=O)N3CCN(C)CC3)CC[C@@H]21

assay / compound	11	12	13	14	15
Vaccinia stage	?	-8	-25	-17	24
Vaccinia stage Venus	·	-7	-21	-10	13

16) C[C@@H]1CN([C@@H](C)CO)C(=O)c2cc(C#CC3(O)CCCC3)cnc2O[C@@H]1CN(C)S(C)(=O)=O
17) CC(C)NC(=O)N[C@H]1C=C[C@H](CC(=O)NCCCN(C)C)O[C@H]1CO
18) C[C@@H]1CN([C@H](C)CO)C(=O)c2cc(NS(=O)(=O)c3ccc(Cl)cc3)ccc2O[C@@H]1CN(C)Cc1ccc2c(c1)OCO2
19) C/C=C/c1ccc([C@@H]2[C@@H](CO)N3CCCCN(C(=O)Nc4cc(F)ccc4F)C[C@@H]23)cc1
20) COc1cccc(CNC(=O)C[C@@H]2CC[C@@H](NC(=O)C3CCC3)[C@H](CO)O2)c1

assay / compound	16	17	18	19	20
Vaccinia stage	16	-6	-18	-27	15
Vaccinia stage Venus	4	-14	-9	-15	11

21) C[C@@H]1CN([C@H](C)CO)C(=O)c2c(c3ccccc3n2C)-c2ccccc2CO[C@@H]1CN(C)S(=O)(=O)c1ccsc1
22) CO[C@@H]1CN(C)C(=O)c2cc(NC(C)=O)ccc2OC[C@@H](C)N(Cc2cncnc2)C[C@@H]1C
23) Cc1ccccc1-c1cnc2c(c1)C(=O)N([C@H](C)CO)C[C@H](C)[C@H](CN(C)Cc1ccccc1F)O2
24) COc1ccc(NC(=O)Nc2ccc3c(c2)C(=O)N([C@@H](C)CO)C[C@H](C)[C@H](CN(C)Cc2ccccc2)O3)cc1
25) C[C@H](CO)N1C[C@H](C)[C@H](CN(C)C(=O)NC2CCCC2)Oc2ncc(C#CC3CCCCC3)cc2C1=O

assay / compound	21	22	23	24	25
Vaccinia stage	-30	5	-7	-11	?
Vaccinia stage Venus	-25	7	-17	-10	·

26) O=C(C[C@@H]1C[C@H]2c3cc(NC(=O)Nc4ccccc4F)ccc3O[C@H]2[C@H](CO)O1)NCC(F)(F)F
27) C[C@@H]1CN([C@H](C)CO)C(=O)Cc2cc(NC(=O)Nc3ccc(C(F)(F)F)cc3)ccc2O[C@H]1CN(C)Cc1ccc(C(=O)Nc2ccccc2N)cc1
28) C[C@@H]1CN([C@@H](C)CO)C(=O)c2cc(NC(=O)CCCN(C)C)ccc2O[C@@H]1CN(C)C
29) CO[C@@H]1CN(C)C(=O)c2cc(NC(=O)c3cnccn3)ccc2OC[C@@H](C)N(C(=O)c2cnccn2)C[C@H]1C
30) C[C@H](CO)N1C[C@H](C)[C@@H](CN(C)C(=O)Nc2cccc3ccccc23)Oc2c(NC(=O)Nc3ccc(F)cc3)cccc2C1=O

assay / compound	26	27	28	29	30
Vaccinia stage	23	-21	12	9	9
Vaccinia stage Venus	7	-9	0	2	7

31) COC(=O)C[C@H]1C[C@@H]2c3cc(NC(=O)Nc4ccccc4)ccc3O[C@@H]2[C@H](CO)O1
32) Cc1cccc(S(=O)(=O)N2[C@@H]3Cn4c(ccc(-c5ccccc5)c4=O)[C@H]2[C@@H](C(=O)O)[C@@H]3CO)c1
33) CC(C)C#Cc1ccc2c(c1)O[C@H](CN(C)Cc1cccnc1)[C@H](C)CN([C@@H](C)CO)S2(=O)=O
34) CCC(=O)Nc1ccc2c(c1)OC[C@@H](C)N(C(=O)c1ccc(F)cc1)C[C@H](C)[C@H](OC)CN(C)C2=O
35) C[C@H](CO)N1C[C@H](C)[C@@H](CN(C)S(=O)(=O)c2cccs2)Oc2ccc(NS(=O)(=O)c3cccs3)cc2C1=O

assay / compound	31	32	33	34	35
Vaccinia stage	6	8	?	11	24
Vaccinia stage Venus	14	4	·	11	19

36) C[C@@H]1CCCCO[C@@H](CN(C)Cc2ccc(C(F)(F)F)cc2)[C@@H](C)CN([C@@H](C)CO)C(=O)c2cc(NC(=O)NC3CCCCC3)ccc2O1
37) C[C@@H]1CN([C@@H](C)CO)C(=O)c2cc(NC(=O)NC3CCCCC3)ccc2O[C@@H]1CN(C)C(=O)Nc1ccccc1
38) O=C(C[C@@H]1CC[C@@H]2[C@H](COC[C@H](O)CN2C(=O)Nc2ccc(Cl)c(Cl)c2)O1)NCc1ccc(Cl)c(Cl)c1
39) Cc1ccc(S(=O)(=O)N(C)C[C@@H]2Oc3c(NC(=O)c4cc(C)nn4C)cccc3C(=O)N([C@H](C)CO)C[C@@H]2C)cc1
40) Cc1cccc(-c2ccccc2[C@H]2[C@@H](C#N)N(c3ncc(-c4ccccc4)s3)[C@H]2CO)c1

assay / compound	36	37	38	39	40
Vaccinia stage	?	11	?	-13	-1
Vaccinia stage Venus	·	-1	·	0	1

41) O=C(O)C[C@@H]1CC[C@H](NC(=O)Nc2ccccc2)[C@H](CO)O1
42) C[C@@H]1CN([C@H](C)CO)C(=O)Cc2cc(NC(=O)CCCCCC(=O)Nc3ccccc3N)ccc2O[C@H]1CN(C)C(=O)Nc1ccc2c(c1)OCO2
43) CNC[C@@H]1Oc2c(NC(=O)Nc3ccc(OC)cc3)cccc2C(=O)N([C@@H](C)CO)C[C@@H]1C
44) CO[C@@H]1CN(C)C(=O)c2ccc(NC(C)=O)cc2OC[C@H](C)N(Cc2ccccc2C(=O)O)C[C@H]1C
45) O=C(Cc1ccncc1)Nc1ccc2c(c1)[C@@H]1C[C@H](CC(=O)N3CCc4ccccc4C3)O[C@@H](CO)[C@@H]1O2

assay / compound	41	42	43	44	45
Vaccinia stage	1	13	2	-8	3
Vaccinia stage Venus	-7	0	3	17	-6

46) CC(C)NC(=O)N(C)C[C@H]1OCCCC[C@@H](C)Oc2ccc(NC(=O)Nc3cccc4ccccc34)cc2C(=O)N([C@H](C)CO)C[C@@H]1C
47) C[C@H](NC(=O)C[C@@H]1C=C[C@@H](NC(=O)C2CCC2)[C@H](CO)O1)c1ccccc1
48) C[C@H](CO)N1C[C@H](C)[C@H](CN(C)S(=O)(=O)c2ccc(C#N)cc2)Oc2ncc(C#Cc3cccc(F)c3)cc2C1=O
49) Cc1noc(C)c1NC(=O)Nc1ccc2c(c1)C(=O)N([C@@H](C)CO)C[C@H](C)[C@@H](CN(C)C(=O)Cc1ccccc1)OCCCC[C@H](C)O2
50) C[C@H]1CCCCO[C@H](CN(C)S(=O)(=O)c2ccc(Cl)cc2)[C@@H](C)CN([C@@H](C)CO)C(=O)c2cc(NC(=O)Nc3ccccc3)ccc2O1

assay / compound	46	47	48	49	50
Vaccinia stage	32	-7	?	11	-7
Vaccinia stage Venus	22	4	·	1	4

51) COc1ccc(NC(=O)N(C)C[C@H]2Oc3ccc(NC(=O)C4CCCCC4)cc3C(=O)N([C@@H](C)CO)C[C@@H]2C)cc1
52) CC(C)C#Cc1ccc([C@@H]2[C@H]3CN(C(=O)NC4CCCCC4)CC(=O)N3[C@H]2CO)cc1
53) O=C(c1ccc(F)cc1)N1CCCCN2[C@@H](CO)[C@H](c3ccc(-c4ccc(F)cc4)cc3)[C@@H]2C1
54) CO[C@@H]1CN(C)C(=O)c2cc(NC(C)=O)ccc2OC[C@@H](C)N(C(=O)c2ccccc2)C[C@H]1C
55) Cc1ccc(S(=O)(=O)Nc2cccc3c2O[C@H](CN(C)Cc2ccc(C(=O)O)cc2)[C@@H](C)CN([C@H](C)CO)C3=O)cc1

assay / compound	51	52	53	54	55
Vaccinia stage	5	-2	?	7	11
Vaccinia stage Venus	5	-7	·	17	-1

56) O=C(Nc1ccccc1F)N1CC(=O)N2[C@H](CO)[C@@H](c3ccc(C#CC4CC4)cc3)[C@@H]2C1
57) Cc1ccc(NC(=O)Nc2ccc3c(c2)C(=O)N(C)[C@@H]2CC[C@H](CC(=O)O)O[C@@H]2CO3)cc1
58) CCCNC(=O)[C@@H]1[C@@H](CO)[C@@H]2Cn3c(ccc(-c4cccc(OC)c4)c3=O)[C@H]1N2CCC
59) O=C(NC1CCC1)[C@H]1[C@H](CO)[C@H]2Cn3c(cccc3=O)[C@@H]1N2CC1CCCCC1
60) O=C1CNC[C@@H]2[C@H](c3ccc(Br)cc3)[C@H](CO)N12

assay / compound	56	57	58	59	60
Vaccinia stage	-11	4	4	24	21
Vaccinia stage Venus	-7	3	0	18	11

61) Cc1cccc(CN(C)C[C@@H]2Oc3ncc(Br)cc3C(=O)N([C@H](C)CO)C[C@@H]2C)c1
62) C[C@H](CO)N1C[C@H](C)[C@@H](CN(C)Cc2cncnc2)Oc2ncc(C#Cc3ccccn3)cc2C1=O
63) O=C(c1cccc(F)c1)N1C[C@@H]2[C@H](c3ccccc31)[C@H](CO)N2C(=O)C1CCCC1
64) COc1ccc2c3c([nH]c2c1)[C@@H](CO)N(CC1CC1)CC31CCN(C(=O)c2ccccc2F)CC1
65) CNC[C@H]1Oc2cc(C#Cc3cccc(OC)c3)ccc2S(=O)(=O)N([C@H](C)CO)C[C@@H]1C

assay / compound	61	62	63	64	65
Vaccinia stage	16	1	-5	8	-32
Vaccinia stage Venus	10	10	-2	12	-23

66) N#Cc1cccc(-c2ccc([C@H]3[C@H]4CN(C(=O)Cc5ccncc5)CCCCN4[C@H]3CO)cc2)c1
67) COc1ccc(S(=O)(=O)N(C)C[C@@H]2OCCCC[C@H](C)Oc3ccc(NC(=O)c4ccccc4)cc3C(=O)N([C@H](C)CO)C[C@H]2C)cc1
68) Cc1noc(C)c1S(=O)(=O)Nc1ccc2c(c1)C(=O)N([C@H](C)CO)C[C@H](C)[C@@H](CN(C)C(=O)NC1CCCCC1)OCCCC[C@H](C)O2
69) CO[C@@H]1CN(C)C(=O)c2cc(NC(=O)C3CCOCC3)ccc2OC[C@H](C)N(Cc2nccs2)C[C@H]1C
70) C[C@@H]1CN([C@H](C)CO)C(=O)c2cccc(NC(=O)Nc3cccc4ccccc34)c2O[C@@H]1CN(C)CC1CCCCC1

assay / compound	66	67	68	69	70
Vaccinia stage	?	-21	6	0	?
Vaccinia stage Venus	·	-20	0	4	·

71) O=C(C[C@H]1C=C[C@H](NS(=O)(=O)c2cccc(F)c2)[C@H](CO)O1)N1CCCCC1
72) C[C@H]1CN([C@@H](C)CO)C(=O)c2cc(NC(=O)Nc3ccc4c(c3)OCO4)ccc2O[C@H]1CN(C)C(=O)Nc1ccc2c(c1)OCO2
73) O=C([C@H]1[C@H](CO)[C@H]2Cn3c(cccc3=O)[C@H]2N1C(=O)CC1CC1)N1CCc2ccccc2C1
74) C[C@@H]1CN([C@H](C)CO)C(=O)c2cc(NC(=O)Cn3cnnn3)ccc2O[C@H]1CN(C)S(C)(=O)=O
75) CC(C)C#Cc1ccc([C@@H]2[C@@H](CO)N3CCCCN(C(=O)c4ccc5c(c4)OCO5)C[C@H]23)cc1

assay / compound	71	72	73	74	75
Vaccinia stage	13	1	-6	21	-4
Vaccinia stage Venus	0	6	-5	7	-2

Only part of the results is shown. The share of hits here may be higher or lower than overall.
